gsp antag = antagonizes gsp, the McCune-Albright syndrome mutation. gsp-mutant cells, cAMP HTRF, 30 min; control for the full effect not named in the record. Potency, µM (series often up to 76.9 µM), for the others: top-dose activity change, negative = inhibition, most hits filed as inhibitors. hit rate 0.4% among 340,000. AID 624288; active = falling curve of any shape with a large fitted effect; inconclusive = falling curve, mostly with a smaller effect; inactive = flat or rising curve; cell line not stated here;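 also: intracellular cAMP measured with PDE inhibitor Ro 20-1724 present during compound exposure; potency is read from the fitted curve at half-maximal effect; % is scaled to controls: 0 for no effect and ±100 for the full control effect; nearly all actives have a fitted effect of over 65% in size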
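HTRF cAMP measurement after 30 min RT detection following 30 min, 37C compound treatment alongside […] (added as 300 uM solution) in G418-selected cells seeded at 2000/well and grown 16–24 h.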
TRPV1 PAM = enhances activation of the human vanilloid receptor TRPV1. TRPV1-expressing cells, Fluo-8 calcium influx, capsaicin EC20 potentiation; host cell line not named in the record; control for the full effect not named in the record. potentiation, % at 8.33 µM. hit rate 0.02% among 320,000. AID 540277; active means potentiation above 80%; inconclusive means 30% to 80%; inactive means below 30%; also: 0% is about no effect
Target sequence (Q8NER1 whole entry, looked up): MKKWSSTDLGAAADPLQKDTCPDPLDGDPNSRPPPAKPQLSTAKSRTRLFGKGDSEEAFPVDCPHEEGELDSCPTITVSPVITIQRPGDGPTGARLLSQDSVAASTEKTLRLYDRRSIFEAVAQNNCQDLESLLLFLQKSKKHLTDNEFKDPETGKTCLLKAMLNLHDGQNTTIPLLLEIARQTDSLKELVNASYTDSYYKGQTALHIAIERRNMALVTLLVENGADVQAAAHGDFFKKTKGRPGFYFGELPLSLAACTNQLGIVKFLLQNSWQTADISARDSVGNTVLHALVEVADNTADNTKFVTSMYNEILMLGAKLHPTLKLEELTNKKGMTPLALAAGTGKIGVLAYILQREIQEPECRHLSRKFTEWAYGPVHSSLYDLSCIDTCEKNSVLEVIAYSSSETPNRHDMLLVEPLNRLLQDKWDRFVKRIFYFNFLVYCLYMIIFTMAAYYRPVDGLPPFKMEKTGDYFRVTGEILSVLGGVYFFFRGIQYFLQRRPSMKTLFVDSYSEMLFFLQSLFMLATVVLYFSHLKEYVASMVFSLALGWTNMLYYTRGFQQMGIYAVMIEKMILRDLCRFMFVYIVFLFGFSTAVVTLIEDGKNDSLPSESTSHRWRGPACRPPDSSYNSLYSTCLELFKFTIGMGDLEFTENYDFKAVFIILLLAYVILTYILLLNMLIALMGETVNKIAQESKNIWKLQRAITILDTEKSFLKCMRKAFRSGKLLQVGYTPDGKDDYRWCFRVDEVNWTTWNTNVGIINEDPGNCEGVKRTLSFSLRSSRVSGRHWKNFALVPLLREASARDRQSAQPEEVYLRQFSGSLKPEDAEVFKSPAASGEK
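TRPV1-expressing cells were cultured overnight at 35.5C and loaded with Fluo-8 calcium dye for 40 to 90 min at room temperature. After a 10 s baseline, compound was added and calcium influx was read kinetically for 3 min (ex 480/em 520 nm).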
Sfp inh = Sfp phosphopantetheinyl transferase inhibition; Potency, µM, for inactives: max response, negative = inhibition, actives largely listed as inhibitors; AID 1490; Q9F4F7; hit rate 3.5% among 310,000; Biochemical Sfp PPTase activity, qHTS; active = well fitted inhibition curve with a large enough effect; inconclusive = small, poorly fitted or top-dose-only effect, or another doubt; inactive = no such curve, though single readings can be large or run the other way;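 also: the enzyme is Sfp with the accession as filed and its product quenches rhodamine fluorescence; potency is read from the fitted curve at half-maximal effect; 0% = enzyme reaction without inhibitor and -100% = no enzyme wells; top concentration of the series not given in the record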
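Compounds were incubated with enzyme (final 15 nM) for 15 min at room temperature before substrate addition started the reaction. Fluorescence at 525 nm excitation, 598 nm emission was recorded immediately and after 30 minutes.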
gsp agonist = agonists of gsp mutant (McCune-Albright syndrome); Potency, µM (top dose mostly 76.9 µM), for the others: top-dose activation (cAMP increase), actives largely listed as activators; hit rate 0.13% among 340,000; gsp mutant cells, cAMP HTRF, 30 min; control for the full effect not named in the record; active = well fitted activation curve with a large enough effect; inconclusive = small, poorly fitted or top-dose-only effect, or another doubt; inactive = no such curve, though single readings can be large or run the other way; cell line not stated here;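 also: phosphodiesterase inhibitor Ro 20-1724 added with compounds to block cAMP breakdown; potency is read from the fitted curve at half-maximal effect; nearly all actives have a fitted effect of over 60% in size; about a fifth of the inactives were tested at one dose only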
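Cells in DMEM/10% FBS with G418 were pretreated with compounds in DMSO plus […] (300 uM stock) for 30 min at 37C. cAMP was measured by HTRF (cAMP-d2 plus anti-cAMP antibody-K) after 30 min at room temperature.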
Menin-MLL FL inh = inhibitors of human menin-MLL interaction, wild-type MLL peptide. Fluorescence polarization, fluorescein-MLL peptide displacement from menin. FP activity change, % at 61.4 µM. 290,000 tested, under 10 active. AID 1766; inconclusive = falling polarisation curve, or a change in total fluorescence; inactive = total fluorescence flat and polarisation flat or rising; no compound was filed as active; the % refers to the polarisation; negative = inhibition;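 also: % of control where 0% means no effect; inhibitors lower the polarisation; unlabelled MLL peptide was the positive control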
ClpP mod = qHTS Assay for Activators of ClpP | purified B. subtilis ClpP, FRET peptide cleavage, 20 min | Potency, µM (top dose mostly 57.5 µM), for the others: at the top dose activity change, negative = active | hit rate 1.9% among 340,000; active = well fitted falling curve with a large enough effect; inconclusive = small, poorly fitted or top-dose-only effect; inactive = no such curve, though single readings can be large or run the other way; also: potency is read from the fitted curve at half-maximal effect; the source files actives as falling curves though it sought activators and does not explain the sign; nearly all actives have a fitted effect of over 65% in size; many hits overshoot -100%
Target sequence (P80244 whole entry, looked up): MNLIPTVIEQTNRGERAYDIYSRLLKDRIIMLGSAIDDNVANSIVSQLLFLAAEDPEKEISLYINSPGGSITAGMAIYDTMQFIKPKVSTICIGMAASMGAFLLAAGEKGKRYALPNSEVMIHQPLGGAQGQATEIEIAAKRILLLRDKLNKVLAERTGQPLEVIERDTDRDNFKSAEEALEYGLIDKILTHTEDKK
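ClpP 10 microg/mL final, pH 8 Tris/KCl buffer with BSA, glycerol, Tween-20; compound pinned in; FRET-FV substrate; RT 20 min; Ex320/Em430; ΔFRET vs ADEP 5.8 microM, DMSO, no enzyme.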
TRPML1 blocker = blocks the human TRPML1 channel. Q9GZU1. TRPML1-inducible cells, Ca2+ dye fluorescence, FDSS; active compounds read low; inhibition of EC80 agonist-evoked calcium signal. activity change, negative = inhibition, % (no concentration beside the values). hit rate 0.02% among 390,000; in the data active means activity change below about -50%; inconclusive means about -30% to -50%; inactive means above about -30%;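 also: stimulus is agonist 54-4 at its EC80 concentration; % is scaled to controls: 0 for no effect and ±100 for the full control effect; compound concentration not given in the record; the text of the record puts the active cut at -80%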
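TRPML1-DL cells, Tet-induced overnight (~16 h, 37 °C) at 1,500 cells/well, were loaded with Ca8 no-wash dye plus quencher for 45-90 min at room temperature. Compounds were pinned during FDSS kinetic reading; agonist 54-4 at EC80 (4 uM final) then added.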
Starred values were filed as active, the others as inactive; ? = inconclusive; . = no result given; & = joins results of further samples; [ ] = remark or other dose.

SMILES	gsp antag	TRPV1 PAM	Sfp inh	gsp agonist	Menin-MLL FL inh	ClpP mod	TRPML1 blocker
CCOC(=O)c1c(NC(=O)COC(=O)c2cnc(C)cn2)sc(C(=O)N(C)C)c1C	1%	3	.	-4%	.	2.8%	-15
Cc1coc2c(C)c3oc(=O)c(CCC(=O)NCc4ccccn4)c(C)c3cc12	-9%	-8	6%	.	4.3	4.7%	.
Cc1c(C(=O)Nc2nonc2-c2ccc(F)cc2)oc2ccc(F)cc12	-26%	5	6%	-10%[15.4 µM]	-1.2	.	3
c1ccc(Nc2c3c(nc4ccccc24)CCC3)cc1	-15%	-23	-3%	2%[15.4 µM]	-3.9	.	41
O=C(N/N=C/c1cccnc1)c1ccc(NC(=O)c2cccc(Cl)c2)cc1	-7%	3	7%	?	-3.0	.	15
O=C(COc1ccc(Cl)cc1Cl)N/N=C/c1cccnc1	8%	0	2%	4%	.	.	19
O=C(Nc1ccncc1)c1ccc(C(=O)Nc2ccncc2)cc1	4%	3	14%	21%	-0.2	-6.0%	-14
CC1=C(C(=O)N2CCOCC2)C(c2cc(C)ccc2C)NC(=S)N1 (stereo not given)	5%	19	4%	?	2.4	.	21
O=C(NCCS(=O)(=O)N1CCN(c2ccccc2)CC1)C1CC(=O)N(c2ccccc2)C1 (stereo not given)	-5%	4	2%	?	1.2	-2.7%&-3.3%	8&1
CCc1nnc(NC(=O)CSc2nc(C)cs2)s1	-1%	-5	6%	5%	-6.1	.	0
C=CCCCN(Cc1ccccc1)S(=O)(=O)c1ccccc1Br	-13%	-2	13%&-7%	3%	2.7&5.6	2.0%	43&12
COc1ccc(NC(=O)C(F)(OC)C(F)(F)F)c(OC)c1 (stereo not given)	7%	-2	3%	-44%[inhibitor]	-1.2	0.6%	3
Cc1cc(Br)ccc1N=C1C(=O)Nc2ccccc21	13%	-14	-1%	-14%	-0.6	4.3%	-15
Cc1ccc(NC(=O)[C@@H]2CCCN2S(=O)(=O)c2ccc(Cl)cc2)cc1	-17%	.	.	-3%	.	2.8%	10
Cc1ccccc1N=Cc1cc2c(cc1O)OC(N)=C(C#N)C2c1ccccc1 (stereo not given)	-9%	-4	-7%	?	?	-4.8%	28
CCc1ccccc1N(C)C(=O)CCc1nc(-c2ccc(C)cc2)no1	-6%	?	?	-3%	0.6	-1.4%	39
COc1ccc(OCC(=O)N/N=C2\CCCc3ccccc32)cc1	-9%	16	?	1%[15.4 µM]	-0.2	0.6%	-5
O=C(c1ccncc1)N1CCCC(N2CCN(c3cccc(C(F)(F)F)c3)CC2)C1 (stereo not given)	-7%	-7	6%	24%	.	-0.6%	-11
O=S1(=O)[C@H]2CC3O[C@]2(C[C@@H]3c2ccc(F)cc2)CN1Cc1ccc(Cl)cc1	-4%	-12	11%	-24%	2.0	-0.1%	-18
O=C(NCC1CC1)C1(C(F)(F)F)CC(CCCO)CCCO1 (stereo not given)	5%	.	23%	13%	-4.8	-1.7%	14&4

Three entries picked at random from the list so far:
SMILES	gsp antag	TRPV1 PAM	Sfp inh	gsp agonist	Menin-MLL FL inh	ClpP mod	TRPML1 blocker
COc1ccc(NC(=O)C(F)(OC)C(F)(F)F)c(OC)c1 (stereo not given)	7%	-2	3%	-44%[inhibitor]	-1.2	0.6%	3
Cc1coc2c(C)c3oc(=O)c(CCC(=O)NCc4ccccn4)c(C)c3cc12	-9%	-8	6%	.	4.3	4.7%	.
C=CCCCN(Cc1ccccc1)S(=O)(=O)c1ccccc1Br	-13%	-2	13%&-7%	3%	2.7&5.6	2.0%	43&12

Going on with the list.
SMILES	gsp antag	TRPV1 PAM	Sfp inh	gsp agonist	Menin-MLL FL inh	ClpP mod	TRPML1 blocker
C[C@@H]1CN([C@H](C)CO)S(=O)(=O)c2ccc(C#Cc3cccc(F)c3)cc2O[C@@H]1CN(C)C(=O)CN1CCOCC1	.	.	.	11%	.	1.7%	7
O=C(COC(=O)c1ccc(C(F)(F)F)cc1)Nc1cccc(S(=O)(=O)N2CCCCC2)c1	11%	-2	.	-48%[inhibitor]	.	-0.1%	-8
CCOc1ccc(NC(=O)C2CCC(N3C(=O)C4CC=CCC4C3=O)CC2)cc1 (stereo not given)	-6%	-3	-7%	-21%	2.0	0.8%	-1
O=C(CCc1ccc(S(=O)(=O)N2CCOCC2)cc1)NCCCN1CCCC1=O	6%	-6	7%	-33%	0.1	-1.8%	19
CCCc1nc2ccccc2c(=O)n1/N=C/c1ccc(O)c(O)c1	-18%	17	3%	?	0.4	0.7%	-12
C#CCSc1nc(-c2ccccc2)cc(C(F)(F)F)c1C#N	?	-11	?	17%	8.3	-6.9%	38
O=C(O)CCC(=O)NC(c1ccccc1)c1ccccc1	-9%	-6	13%	5%[15.4 µM]	6.0	-2.9%	0
CC(C)c1nnc(NC(=O)c2ccc3c(c2)OCO3)s1	4%	-4	5%	?	-4.1	1.1%	13
NS(=O)(=O)c1ccc(N2C(=O)C3CC=CCC3C2=O)cc1 (stereo not given)	6%	-10	20%	-2%	2.2	-1.2%	5
CCN(CC)S(=O)(=O)c1cccc(NC(=O)COC(=O)CNC(=O)c2cccc(F)c2)c1	-12%	10	18%	-6%	0.3	1.0%	-11
CCOc1ccc(CCNC(=O)c2ccc(C)c(NC3=NC4CS(=O)(=O)CC4S3)c2)cc1 (stereo not given)	8%	0	7%	0%	.	-3.4%	20
CCCNC(=O)COC(=O)/C=C/c1ccc2c(c1)OCO2	-2%	-11	-13%	-42%[inhibitor]	4.8	-25%	-15
CN(C)CCNC(=S)Nc1ccc(-c2nc3ccccc3[nH]2)cc1	7%	12	2%	?	-2.1	-16%	13
Cn1c(-c2ccc3c(c2)OCO3)cnc1NCc1cccc(O)c1	7%	-7	0%	-3%[15.4 µM]	2.3	.	-4
Cc1onc(-c2ccccc2)c1C(=O)NNC(=O)c1ccccc1	2%	0	.	-1%	.	0.8%	5
O=C(NCc1ccco1)c1c[nH]c2ccc(S(=O)(=O)N3CCOCC3)cc2c1=O	-25%	-3	18%	?	3.0	32µM*	-19
Cc1cc2c(c(Sc3ccccc3)n1)C(=O)OC2	-22%	5	10%	1%	2.7	-1.8%	24
NC(=O)c1c(NC(=O)c2ccccc2F)sc2c1CCCC2	-9%	-6	-21%	-17%	0.3	.	-2
COC(=O)c1sc(S(=O)(=O)N2CCC(C(N)=O)CC2)c(C(=O)OC)c1C	-2%	1	8%	-9%	2.3	-0.5%	-5
O=C(O)C1(Cc2nc3ccccc3[nH]2)CCCC1	7%	2	7%	28%	.	.	-9

5 of the compounds above, in CSV form.
Structure,gsp antag,TRPV1 PAM,Sfp inh,gsp agonist,Menin-MLL FL inh,ClpP mod,TRPML1 blocker
Cc1onc(-c2ccccc2)c1C(=O)NNC(=O)c1ccccc1,2%,0,.,-1%,.,0.8%,5
O=C(NCc1ccco1)c1c[nH]c2ccc(S(=O)(=O)N3CCOCC3)cc2c1=O,-25%,-3,18%,?,3.0,32µM*,-19
Cc1cc2c(c(Sc3ccccc3)n1)C(=O)OC2,-22%,5,10%,1%,2.7,-1.8%,24
NC(=O)c1c(NC(=O)c2ccccc2F)sc2c1CCCC2,-9%,-6,-21%,-17%,0.3,.,-2
COC(=O)c1sc(S(=O)(=O)N2CCC(C(N)=O)CC2)c(C(=O)OC)c1C,-2%,1,8%,-9%,2.3,-0.5%,-5

Following part
SMILES	gsp antag	TRPV1 PAM	Sfp inh	gsp agonist	Menin-MLL FL inh	ClpP mod	TRPML1 blocker
COc1cc2c(cc1NC(=O)c1ccccc1F)CCCC2	-12%	-5	-8%	0%	1.2	-6.0%	-11
COc1ccccc1NC(=O)c1ccccc1N(Cc1ccccc1)S(C)(=O)=O	-4%	-15	11%	-4%	-0.7	0.9%	.
CCOC(=O)c1ccc(NC(=O)N2CCCCCC2)cc1	-17%	-11	5%	6%[15.4 µM]	-0.2	0.1%	-1
O=C(Nc1csc([N+](=O)[O-])c1)Nc1c(Cl)cccc1Cl	-5%	-16	4%	-2%	0.1	-3.5%	29
CS(=O)(=O)N(Cc1ccc(Cl)cc1)c1ccc(C(=O)N/N=C/c2cc3ccccc3nc2Cl)cc1	-8%	-2	-27%	-11%[15.4 µM]	8.1	1.1%	11
COc1ccc(OCC(O)Cn2c(Nc3ccccc3)nc3c2c(=O)n(C)c(=O)n3C)cc1 (stereo not given)	-1%	-24	8%	?	3.4	-13%	2
CSc1nnc(NC(=O)CCc2ccccc2)s1	14%	30	-9%	2%	3.4	-5.1%	5
CCOC(=O)CSc1ccc2nnc(CCNS(=O)(=O)c3ccccc3)n2n1	-7%	-7	5%	-15%	0.2	?	3&-14
CS(=O)(=O)N1CCN(c2ccc([N+](=O)[O-])c(N3CCOCC3)c2)CC1	-2%	-1	2%	-46%	2.2	-1.4%	1
CCS(=O)(=O)c1nc(S(=O)(=O)c2ccc(C)cc2)c(N2CCN(C)CC2)s1	-3%	3	8%	?	.	0.1%	10
Cc1ccc(NC(=O)COC(=O)c2ccc(CN3CCCC3=O)cc2)c(Cl)c1	-7%	0	.	-2%	.	-3.0%	-6
O=C(NCc1ccco1)C1CCCCN1S(=O)(=O)c1ccc(F)cc1 (stereo not given)	-5%	27	1%	10%	-2.5	0.0%	-10
CC1CCC2(CC1)NC(=O)N(CC(=O)NC1CCCCC1C)C2=O (stereo not given)	4%	.	.	-23%	.	-7.6%	35
COc1cc(C(=O)Nc2nc(OC)c(-c3ccccc3)c(OC)n2)cc(OC)c1OC	4%	9	3%	23%	-1.5	5.5%	-6
COc1ccc(C)c(-n2c(N)cc(=O)n(Cc3ccccc3)c2=O)c1	-5%	2	1%	-3%	1.9	-5.1%	-8
CC1=CC(=O)C=CC1(C)C(Cl)Cl (stereo not given)	4%	7	-8%	-4%	0.0	1.1%	34
N#Cc1ccc(OCC(=O)Nc2cc(S(=O)(=O)N3CCOCC3)ccc2N2CCCC2)cc1	-10%	.	.	1%	.	0.1%	7
CCCN(C(=O)c1cn(C)c(=O)c2ccccc12)c1ccccc1C	-28%	5	5%	10%[15.4 µM]	-0.5	-0.5%&-17%	4&-3
Cc1ccc(C(=O)/C=C/Nc2ccccc2C(N)=O)o1	-9%	-3	-7%	?	?	?	21

Random draw from the library, and some 4.9% of all compounds hit somewhere here.
